gsp antag: qHTS for Antagonists of gsp, the Etiologic Mutation Responsible for Fibrous Dysplasia/McCune-Albright Syndrome: qHTS | gsp-mutant cells, cAMP HTRF, 30 min; control for the full effect not named in the record | Potency, µM (titrated, usually from 76.9 µM), for inactives: at the highest dose activity change, negative = inhibition, usual class: inhibitors | 340,000 tested, 0.4% active | AID 624288, 2012; active = falling curve of any shape with a large fitted effect; inconclusive = falling curve, mostly with a smaller effect; inactive = flat or rising curve; cell line not stated here;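 also: intracellular cAMP measured with PDE inhibitor Ro 20-1724 present during compound exposure; potency is read from the fitted curve at half-maximal effect; % is scaled to controls: 0 for no effect and ±100 for the full control effect; nearly all actives have a fitted effect of over 65% in size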
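G418-selected cells were plated in DMEM/10% FBS for 16-24 h at 37C, then treated with compounds plus the PDE inhibitor […] (300 uM solution added) for 30 min at 37C. Intracellular cAMP was measured by HTRF after 30 min lysis at room temperature.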
TRPML1 inh: qHTS for Inhibitors of the Human Mucolipin Transient Receptor Potential 1 (TRPML1); Mucolipin-1 (Homo sapiens), Q9GZU1; 390,000 tested, 0.02% active; TRPML1-inducible cells, Ca2+ dye fluorescence, FDSS; stronger effect = lower value; inhibition of EC80 agonist-evoked calcium signal; activity change, negative = inhibition, % (concentration not given with the values); in the data active means activity change below about -50%; inconclusive means about -30% to -50%; inactive means above about -30%;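 also: stimulus is agonist 54-4 at its EC80 concentration; % is scaled to controls: 0 for no effect and ±100 for the full control effect; compound concentration not given in the record; the text of the record puts the active cut at -80%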
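Tet-induced TRPML1-DL cells loaded with Ca8 no-wash calcium dye were read kinetically on FDSS. Compound addition was followed by EC80 agonist 54-4 (4 uM final); inhibition was read over 110 s.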
Sfp PPTase inh: qHTS Assay for Inhibitors of Bacillus subtilis Sfp phosphopantetheinyl transferase (PPTase); 310,000 tested, 3.5% active; Potency, µM, inactives show max response, negative = inhibition, actives largely listed as inhibitors; 4'-phosphopantetheinyl transferase ffp (Bacillus subtilis), Q9F4F7; Biochemical Sfp PPTase activity, qHTS; AID 1490, 2009; active = well fitted inhibition curve with a large enough effect; inconclusive = small, poorly fitted or top-dose-only effect, or another doubt; inactive = no such curve, though single readings can be large or run the other way;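 also: the enzyme is Sfp with the accession as filed and its product quenches rhodamine fluorescence; potency is read from the fitted curve at half-maximal effect; 0% = enzyme reaction without inhibitor and -100% = no enzyme wells; top concentration of the series not given in the record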
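Fluorescence-quenching assay with 15 nM Sfp, 5 uM rhodamine-CoA and 12.5 uM BHQ-2-labelled ybbR peptide in pH 7.6 Hepes/MgCl2 buffer. Enzyme was pre-incubated with compound for 15 min at room temperature. Rate was taken from the 30-min fluorescence change (525/598 nm).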
Menin MLL FP FL: qHTS Assay for Inhibitors Targeting the Menin-MLL Interaction in MLL Related Leukemias: Competition With Fluorescein Labeled MLL-derived Peptide; Fluorescence polarization, fluorescein-MLL peptide displacement from menin; FP activity change, % at 61.4 µM; AID 1766, 2009; 290,000 tested, under 10 active; inconclusive = falling polarisation curve, or a change in total fluorescence; inactive = total fluorescence flat and polarisation flat or rising; no compound was filed as active; the % refers to the polarisation; negative = inhibition;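 also: % of control where 0% means no effect; inhibitors lower the polarisation; unlabelled MLL peptide was the positive control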
gsp agonist: qHTS for Agonist of gsp, the Etiologic Mutation Responsible for Fibrous Dysplasia/McCune-Albright Syndrome: qHTS; 340,000 tested, 0.13% active; Potency, µM (highest dose often 76.9 µM), for inactives: at the top dose activation (cAMP increase), actives largely listed as activators; gsp mutant cells, cAMP HTRF, 30 min; control for the full effect not named in the record; active = well fitted activation curve with a large enough effect; inconclusive = small, poorly fitted or top-dose-only effect, or another doubt; inactive = no such curve, though single readings can be large or run the other way; cell line not stated here;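 also: phosphodiesterase inhibitor Ro 20-1724 added with compounds to block cAMP breakdown; potency is read from the fitted curve at half-maximal effect; nearly all actives have a fitted effect of over 60% in size; about a fifth of the inactives were tested at one dose only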
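Cells in DMEM/10% FBS with G418 were pretreated with compounds in DMSO plus […] (300 uM stock) for 30 min at 37C. cAMP was measured by HTRF (cAMP-d2 plus anti-cAMP antibody-K) after 30 min at room temperature.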
ClpP mod: qHTS Assay for Activators of ClpP; ATP-dependent Clp protease proteolytic subunit (Bacillus subtilis (strain 168)), P80244; purified B. subtilis ClpP, FRET peptide cleavage, 20 min; Potency, µM (top dose mostly 57.5 µM), for the others: at the top dose activity change, negative = active; 340,000 tested, 1.9% active; AID 651965, 2013; active = well fitted falling curve with a large enough effect; inconclusive = small, poorly fitted or top-dose-only effect; inactive = no such curve, though single readings can be large or run the other way; also: potency is read from the fitted curve at half-maximal effect; the source files actives as falling curves though it sought activators and does not explain the sign; nearly all actives have a fitted effect of over 65% in size; many hits overshoot -100%
Target sequence (P80244 whole entry, looked up): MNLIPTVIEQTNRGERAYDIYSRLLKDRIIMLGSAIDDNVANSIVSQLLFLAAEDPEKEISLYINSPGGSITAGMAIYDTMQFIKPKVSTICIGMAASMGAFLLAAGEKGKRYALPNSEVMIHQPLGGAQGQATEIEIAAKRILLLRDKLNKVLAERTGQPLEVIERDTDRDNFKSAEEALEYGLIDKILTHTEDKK
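ClpP 10 microg/mL final, pH 8 Tris/KCl buffer with BSA, glycerol, Tween-20; compound pinned in; FRET-FV substrate; RT 20 min; Ex320/Em430; ΔFRET vs ADEP 5.8 microM, DMSO, no enzyme.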
TRPV1 PAM: HTS Assay for Compounds that Act as Potentiators of the Vanilloid Receptor 1; TRPV1-expressing cells, Fluo-8 calcium influx, capsaicin EC20 potentiation; host cell line not named in the record; control for the full effect not named in the record; potentiation, % at 8.33 µM; 320,000 tested, 0.02% active; active means potentiation above 80%; inconclusive means 30% to 80%; inactive means below 30%; also: 0% is about no effect
Target sequence (Q8NER1 whole entry, looked up): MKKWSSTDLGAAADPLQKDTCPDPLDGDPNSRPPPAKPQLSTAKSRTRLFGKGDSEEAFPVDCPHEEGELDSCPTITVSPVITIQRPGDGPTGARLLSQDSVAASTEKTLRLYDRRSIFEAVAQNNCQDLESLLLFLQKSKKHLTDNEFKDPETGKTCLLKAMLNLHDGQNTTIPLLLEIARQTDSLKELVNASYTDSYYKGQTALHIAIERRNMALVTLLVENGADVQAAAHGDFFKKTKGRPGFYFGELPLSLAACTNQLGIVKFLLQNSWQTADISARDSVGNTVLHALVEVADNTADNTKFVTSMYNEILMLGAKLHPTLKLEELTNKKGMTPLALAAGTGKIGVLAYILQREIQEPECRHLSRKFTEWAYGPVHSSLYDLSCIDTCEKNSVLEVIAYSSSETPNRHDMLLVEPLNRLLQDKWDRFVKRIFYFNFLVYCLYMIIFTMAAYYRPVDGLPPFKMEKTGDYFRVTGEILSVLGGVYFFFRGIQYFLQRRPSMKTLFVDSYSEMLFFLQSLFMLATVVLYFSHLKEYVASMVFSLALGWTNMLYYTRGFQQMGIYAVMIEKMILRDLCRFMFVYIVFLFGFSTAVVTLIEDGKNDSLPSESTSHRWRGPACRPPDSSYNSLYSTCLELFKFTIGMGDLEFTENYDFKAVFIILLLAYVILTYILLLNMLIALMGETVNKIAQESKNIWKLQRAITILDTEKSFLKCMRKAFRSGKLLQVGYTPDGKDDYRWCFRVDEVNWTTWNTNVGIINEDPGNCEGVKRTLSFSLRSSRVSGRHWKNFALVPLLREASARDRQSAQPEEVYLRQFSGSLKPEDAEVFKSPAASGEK
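TRPV1-expressing cells were cultured overnight at 35.5C and loaded with Fluo-8 calcium dye for 40 to 90 min at room temperature. After a 10 s baseline, compound was added and calcium influx was read kinetically for 3 min (ex 480/em 520 nm).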
* = called active by the depositor; ? = inconclusive; · = not tested or not shown; [ ] = another dose, or the depositor's remark. Rows are unselected. Share with any hit: about 4.9%.

SMILES	gsp antag	TRPML1 inh	Sfp PPTase inh	Menin MLL FP FL	gsp agonist	ClpP mod	TRPV1 PAM
Cc1cc([N+](=O)[O-])nn1Cc1ccc(F)cc1	7.3%	2.2	-13.7%	3.0	8.4%[15.4 µM]	·	3.9
CCC(C)(C)C1CCc2[nH]nc(C(=O)NCC3CC3)c2C1 (stereo not given)	-19.8%	-10.3	·	·	·	-0.9%	-77.0
C[C@H](NC(=O)c1ccccc1Cl)C(=O)NCCc1ccc(S(N)(=O)=O)cc1	6.0%	-3.2	27.8%	7.8	-8.4%[15.4 µM]	·	-14.2
O=S(=O)(NCc1ccc(C(F)(F)F)cc1)c1ccc(-n2cnnn2)cc1	14.1%	?	12.3%	·	-3.5%	1.7%	-1.6
CN(C)C(=O)N1CCC(C(=O)NCc2cccs2)CC1	4.0%	-0.7	11.0%	1.6	31.8%	-17.5%	1.8
Cc1cc(C)nc(SCc2ccc(C(=O)N/N=C3\CCCC(=O)C3)cc2)n1	6.6%	-7.2	-7.9%	?	-12.6%	·	-3.7
CCCN(Cc1cc2cc(C)ccc2[nH]c1=O)C(=O)c1cccc([N+](=O)[O-])c1	-11.4%	-5.1	9.9%	-0.8	20.7%	-12.9%	8.4
Nc1nc2nccc(-c3cccnc3)n2n1	10.8%	-5.7	22.5%	-5.9	-33.2%[15.4 µM]	·	-15.0
O=C(Cc1ccc2c(c1)CCCC2)Nc1ccc2ccccc2c1	8.5%	-2.3	-10.8%	·	-18.7%	-2.7%	28.3
Cn1cnnc1Sc1ccc(C(=O)NCCC(c2ccccc2)c2ccccc2)cc1[N+](=O)[O-]	-20.0%	-12.5	-23.6%	0.0	-32.8%[inhibitor]	?	-11.0
CCn1nnnc1SCC(=O)N1CCCc2ccccc21	12.0%	1.7	18.2%	3.3	-24.6%	2.1%	-7.5
CCOc1ccccc1CN1CCNC(=O)C1CC(=O)N(C)C1CCOCC1 (stereo not given)	10.8%	-1.7	11.4%	·	-48.5%[inhibitor]	-1.6%	8.3
COc1ccc2[nH]c3c(=S)nc[nH]c3c2c1	15.8%	1.5	50.1µM*	2.6	38.6%[15.4 µM]	·	-11.0
COc1ccccc1C(=O)NCC1CCN(c2ccc(S(=O)(=O)N3CCOCC3)cc2)CC1	-20.0%	-6.4	-0.9%	0.2	3.3%	-1.1%	-1.9
CC(C)n1c(SCC(=O)Nc2nc3c(s2)CCCC3)nc2c1c(=O)n(C)c(=O)n2C	15.5%	-6.1	15.8%	-0.6	?	0.3%	8.3
CN(CC(=O)Nc1c(Cl)cccc1Cl)C(=O)C1CC(=O)N(Cc2ccccc2)C1 (stereo not given)	7.6%	2.6	·	·	15.7%	-2.0%	22.0
CCn1c(SCC(=O)N2CC(=O)Nc3ccccc32)nnc1-c1ccoc1C	3.2%	-11.6	-3.7%	5.8	-11.1%	-0.6%	-13.1
CCOC(=O)C1CCCN(CCC(C)c2ccccc2)C1 (stereo not given)	7.1%	-6.6	-15.6%	6.6	22.6%	0.3%	2.2
Cc1nnc2n(-c3ccccc3)c(=O)c3ccccc3n12	4.7%	15.9	·	·	21.4%	·	·
COc1ccc(Br)cc1CNC(=O)CCc1nc(-c2ccc(C)cc2)no1	-15.1%	-6.6	0.9%	-0.8	-11.0%	1.6%	0.4
CN1C(=O)N(CC(=O)N2CCN(c3ccccc3F)CC2)C(=O)C12CCCCC2	1.2%	8.5	·	·	34.8%	-0.3%	-2.7
O=C(NCc1ccccc1F)C1CCN(S(=O)(=O)c2ccccc2)CC1	7.2%	24.2	-3.9%	-11.2	-19.1%[15.4 µM]	·	-14.2
O=C1c2ccccc2-c2onc3ccc(N4CCCC4)c1c23	?	33.5	39.8µM*	?	-73.3%[inhibitor]	-2.5%	-8.2
CCN(CC)c1ccc(S(=O)(=O)N2CCOCC2)cc1NC(=O)C1CC1	19.8%	-17.2	·	·	1.4%	-0.7%	-18.9
COc1cc(OC)cc(C(=O)N2CCN(c3ccccn3)CC2)c1	7.3%	2.9	3.5%	-4.2	?	·	-1.6
CSc1ccccc1C(=O)NCCOc1cccc(C)c1	5.5%	-1.4	12.8%	3.9	-13.5%[15.4 µM]	-2.8%	2.4
COc1ccccc1-c1c(C)nn2c(N3CCC(C(N)=O)CC3)cc(C)nc12	-8.3%	25.4	11.9%	0.8	?	-3.0%	1.4
CCc1ccc(/C=C2\SC(=S)N(CCC(=O)NCCCN3CCOCC3)C2=O)cc1	-5.9%	25.8	-12.8%	·	-77.3%[inhibitor]	2.1%	-5.5
CC(C)Nc1nc(NC(C)C)nc(N(C)C(N)=O)n1	12.1%	7.7	28.0%	3.4	-12.6%	-0.7%	1.3
O=C(c1ccc(F)cc1)c1cn[nH]c1-c1ccccc1O	-5.0%	2.9	22.4%	3.8	-9.4%	-2.9%	13.7

Records listed above shown as hits in Sfp PPTase inh.
SMILES,gsp antag,TRPML1 inh,Sfp PPTase inh,Menin MLL FP FL,gsp agonist
COc1ccc2[nH]c3c(=S)nc[nH]c3c2c1,15.8%,1.5,50.1µM*,2.6,38.6%[15.4 µM]
O=C1c2ccccc2-c2onc3ccc(N4CCCC4)c1c23,?,33.5,39.8µM*,?,-73.3%[inhibitor]

Other entries.
SMILES	gsp antag	TRPML1 inh	Sfp PPTase inh	Menin MLL FP FL	gsp agonist	ClpP mod	TRPV1 PAM
Cc1ccc(S(=O)(=O)N2CCOCC2)cc1NC(=O)COC(=O)CCn1c(C)csc1=O	2.9%	33.4	5.4%	·	13.6%[15.4 µM]	-1.6%	-7.7
Cc1ccc(S(=O)(=O)n2nc(OC(=O)c3c(-c4ccccc4Cl)noc3C)cc2N)cc1	-12.9%	-10.3	16.3%	-1.8	-22.9%	-1.3%	2.4
COc1ccc(C2OC(=O)CC2C(=O)NC(C)C)cc1 (stereo not given)	12.1%	8.3	3.1%	-2.7	4.7%	0.5%	-1.3
COc1ccc(NC(=O)c2ccc(Cl)nc2)cc1S(=O)(=O)N1CCOCC1	-1.4%	6.4	·	·	-19.0%	0.0%	0.9
COc1ccc(C)cc1Nc1ccc(C(=O)O)cc1[N+](=O)[O-]	?	-26.9	9.7%	3.7	8.4%[15.4 µM]	·	1.0
O=C(NC(=S)N1CCc2ccccc21)c1ccccc1Br	5.1%	28.7	-27.0%	5.8	-3.6%	-4.2%	?
O=C(NCc1ccccc1Cl)c1ccc2nc[nH]c2c1	0.5%	15.6	7.6%	4.0	4.0%	-1.4%	0.0
O=C(O)C(=O)Nc1ncn[nH]1	·	-3.3	·	·	-5.2%	-0.4%	·
CCOc1ccc(N2C(=O)CC(NCCc3ccncc3)C2=O)cc1 (stereo not given)	-16.5%	3.5	-8.0%	-0.6	-13.9%	0.1%	0.3
CCCCn1c(N)c(N(CC(C)C)C(=O)CSc2nnc(C)n2-c2ccc(OC)cc2)c(=O)[nH]c1=O	4.6%	4.7	·	·	-0.8%	0.4%	1.2
CCC1(C)Cc2c(sc3[nH]c(=S)n(Cc4ccccc4)c(=O)c23)CO1 (stereo not given)	?	6.2	14.5%	6.8	-18.4%	-3.5%	?
CC(=O)c1cccc(S(=O)(=O)NC2CCCCCC2)c1	13.2%	-0.1	-5.9%	2.7	21.7%	-0.3%	-4.6
COC(=O)Cc1[nH]nc2c1C1(C(=O)N(Cc3ccc(Cl)cc3)c3ccccc31)C(C#N)=C(N)O2 (stereo not given)	7.6%	1.6	16.6%	0.8	-23.3%	1.8%	?
CCn1c(SCC(=O)NC2CCCC2)nnc1-c1c[nH]c2ccccc12	3.8%	46.0	20.2%	4.7	-23.7%	0.6%	-2.5
Cc1ccc(CC(NC(=O)c2ccccc2)C(=O)N2CCCC2C(=O)O)cc1 (stereo not given)	-6.6%	-3.7	7.3%	1.2	?	0.5%	?
COc1ccc(NC(=O)CSc2nc3sc(C)cc3c(=O)n2C)c(OC)c1	-6.0%	18.5	3.0%	·	-4.4%[15.4 µM]	0.5%	2.0
CCN(C(=O)COC(=O)c1ccccc1SCC(=O)NC1CCCCCCC1)C1CCS(=O)(=O)C1 (stereo not given)	-24.1%	-4.7	7.7%	12.1	1.5%	0.7%	12.5
CC(C)(Oc1ccc(Cl)cc1)C(=O)N1CCN(c2ccccn2)CC1	1.8%	-3.0	9.5%	-1.1	0.0%	?	-1.0
Nc1ccc(N2C(=O)c3ccccc3C2=O)c(Cl)c1	1.4%	-0.1	·	0.9	·	-1.9%	-10.2
Cc1nnc(NC(=O)c2ccccc2C(=O)O)s1	4.1%	-3.3	3.2%	-1.5	11.3%	0.0%	-5.5
Cc1ccc(NC(=O)NCCCCc2ccccc2)cc1	-1.5%	-4.7	17.6%	2.8	27.4%	-0.8%	-3.4
Cc1cc(C)c(C#N)c(SCc2nnc(-c3ccccc3)o2)n1	-24.2%	10.4	-11.0%	-2.4	-9.1%	3.2%	-2.5

3 records drawn at random from the list so far, as already listed:
SMILES	gsp antag	TRPML1 inh	Sfp PPTase inh	Menin MLL FP FL	gsp agonist	ClpP mod	TRPV1 PAM
COc1ccc(NC(=O)CSc2nc3sc(C)cc3c(=O)n2C)c(OC)c1	-6.0%	18.5	3.0%	·	-4.4%[15.4 µM]	0.5%	2.0
Cc1ccc(NC(=O)NCCCCc2ccccc2)cc1	-1.5%	-4.7	17.6%	2.8	27.4%	-0.8%	-3.4
Cc1cc(C)c(C#N)c(SCc2nnc(-c3ccccc3)o2)n1	-24.2%	10.4	-11.0%	-2.4	-9.1%	3.2%	-2.5
